Hedgehog inh: blocks Sonic Hedgehog signaling; Shh-LIGHT2 Gli-luciferase reporter, 30 h; inhibition, % (test concentration not listed); 2.1% of 22,000 active; AID 2313;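 active means replicate mean of 65% or more; inconclusive means mean lower but half the replicates past it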;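 further: pathway switched on by Shh-conditioned medium diluted 1 in 25 in low serum; 100 nL library stock added to about 40 µL; 0% = median of neutral wells and 100% = positive control level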
YB-1 expression: YB-1 expression inhibition | 0.37% of 30,000 active | delta delta Cp (YB-1 minus CDIP) (test concentration not listed) | U2OS, qRT-PCR YB-1 vs CDIP delta delta Cp, 16 h; hits give high values; zero = DMSO, each unit about twofold | AID 434959;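 active means delta delta Cp rounded down to an integer at or above 3, about 3 SD of DMSO wells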;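 further: higher means less YB-1 transcript or more CDIP transcript relative to DMSO; stock transfer was 100 nL into about 100 µL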
PD-1 reversal: activators reversing PD-1 mediated T-cell inhibition | 29,000 tested, under 10 active | primary human CD4 T cells, PD-L1 beads, CellTiter-Glo 96 h | activation, % (test concentration not listed);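 active means replicate mean of 50% or more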;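 further: 0% = median vehicle wells and 100% = positive control; 100 nL library stock added to about 50 µL; numbers are from one replicate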
MITF inhib: MITF inhibition | TRPM1 promoter luciferase, luminescence, 24 h | inhibition, % (concentration not given with the values) | 0.28% of 37,000 active;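 active means most replicates at 85% or more, or half of them and the mean; inconclusive means half reach 85% but not the mean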;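 further: human melanocyte line stably carrying TRPM1 promoter luciferase reporter; 0% = vehicle wells and 100% = a positive control; the first replicate is given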
* hit, by the source's call. This is a subset; rates above refer to the full screens.

Sample of the layout, 4 compounds:
Cn1ccnc1SCC(=O)Nc1ccc2c(c1)COC2=O was read as PD-1 reversal 1.9 and MITF inhib -69.3.
Screening C[C@@H]1CN([C@H](C)CO)C(=O)c2cc(NC(=O)c3ccncc3)ccc2O[C@@H]1CN(C)Cc1ccc(C(=O)Nc2ccccc2N)cc1 returned YB-1 expression -0.534, PD-1 reversal -2.5 and MITF inhib -7.7.
`CC(=O)Nc1ccccc1NC(=O)CN(C)S(=O)(=O)c1ccc(C)cc1` gave PD-1 reversal 5.3 and MITF inhib -27.4.
For CC(C)NC(=O)Nc1cccc2c1O[C@@H](CN(C)CC1CCCCC1)[C@@H](C)CN([C@H](C)CO)C2=O the results were Hedgehog inh -39.3, YB-1 expression 0.657, PD-1 reversal 0.4 and MITF inhib 4.4.

All compounds of this part, previewed entries included:
Cn1ccnc1SCC(=O)Nc1ccc2c(c1)COC2=O was read as PD-1 reversal 1.9 and MITF inhib -69.3.
Screening C[C@@H]1CN([C@H](C)CO)C(=O)c2cc(NC(=O)c3ccncc3)ccc2O[C@@H]1CN(C)Cc1ccc(C(=O)Nc2ccccc2N)cc1 returned YB-1 expression -0.534, PD-1 reversal -2.5 and MITF inhib -7.7.
`CC(=O)Nc1ccccc1NC(=O)CN(C)S(=O)(=O)c1ccc(C)cc1` gave PD-1 reversal 5.3 and MITF inhib -27.4.
For CC(C)NC(=O)Nc1cccc2c1O[C@@H](CN(C)CC1CCCCC1)[C@@H](C)CN([C@H](C)CO)C2=O the results were Hedgehog inh -39.3, YB-1 expression 0.657, PD-1 reversal 0.4 and MITF inhib 4.4.
For Cc1noc(C)c1S(=O)(=O)Nc1ccc2c(c1)C(=O)N([C@H](C)CO)C[C@@H](C)[C@@H](CN(C)S(C)(=O)=O)O2 the results were Hedgehog inh -2.9, YB-1 expression 0.42 and MITF inhib -1.3.
Screening C[C@@H]1CCCCO[C@@H](CN(C)Cc2ccc(Cl)c(Cl)c2)[C@@H](C)CN([C@H](C)CO)C(=O)c2cc(NS(=O)(=O)c3cccs3)ccc2O1 returned Hedgehog inh 2.6, YB-1 expression 0.12 and MITF inhib 53.5.
`C[C@H]1CN([C@@H](C)CO)C(=O)c2cccc(NS(=O)(=O)c3cn(C)cn3)c2O[C@@H]1CN(C)Cc1ccc(C(=O)O)cc1` gave Hedgehog inh 0.6, YB-1 expression 0.467 and MITF inhib -5.8.
C[C@@H]1CN([C@@H](C)CO)C(=O)c2cccc(NC(=O)C3CC3)c2O[C@@H]1CN(C)Cc1ccc(C(=O)Nc2ccccc2N)cc1 was read as YB-1 expression -0.301, PD-1 reversal -4.1 and MITF inhib 3.9.
Screening CNC[C@@H]1Oc2c(NC(=O)Nc3ccccc3)cccc2C(=O)N([C@@H](C)CO)C[C@@H]1C returned Hedgehog inh 10.9, YB-1 expression 0.117, PD-1 reversal 0.5 and MITF inhib -1.5.
For C[C@@H]1CCCCO[C@@H](CN(C)C(=O)Cc2ccccc2)[C@@H](C)CN([C@H](C)CO)C(=O)c2cc(NS(=O)(=O)c3ccc(Cl)cc3)ccc2O1 the results were YB-1 expression 0.56, PD-1 reversal 0.5 and MITF inhib 0.8.
`Cc1ccc2nc(-c3ccccn3)cc(C(=O)Nc3sc4c(c3C(N)=O)CCc3ccccc3-4)c2c1` gave PD-1 reversal 0.3 and MITF inhib 15.3.
For CNC[C@@H]1Oc2ccc(NS(=O)(=O)c3c(C)noc3C)cc2C(=O)N([C@H](C)CO)C[C@H]1C the results were Hedgehog inh 2.4, YB-1 expression -0.216 and MITF inhib -4.3.
For COc1cc(OC)c(O[C@@H]2O[C@H](COC(=O)c3cc(O)c(O)c(O)c3)[C@@H](O)[C@H](O)[C@H]2O)c(OC)c1 the results were Hedgehog inh 8.9, YB-1 expression 5.57*, PD-1 reversal -1.9 and MITF inhib 7.1.
Screening C[C@H](CO)N1C[C@H](C)[C@@H](CN(C)Cc2ccc(Cl)c(Cl)c2)Oc2ccc(NC(=O)Cn3cnnn3)cc2C1=O returned Hedgehog inh -3.0, YB-1 expression -0.0401, PD-1 reversal 2.4 and MITF inhib 2.0.
For O=C(O)c1ccccc1Nc1ccccc1 the results were Hedgehog inh -67.6, YB-1 expression -0.493 and MITF inhib -16.5.
C[C@H]1CN([C@@H](C)CO)C(=O)Cc2cc(NC(=O)c3ccncc3)ccc2O[C@H]1CN(C)C(=O)Nc1ccc(C(F)(F)F)cc1 was read as Hedgehog inh 2.1, YB-1 expression -0.0568, PD-1 reversal -0.2 and MITF inhib -7.5.
`COc1cccc(OCc2nc(-c3ccccc3)no2)c1` gave PD-1 reversal 1.3 and MITF inhib -129.3.
For COc1cc(NC(=O)c2ccccc2)c(OC)cc1NC(=O)COc1ccc(Cl)cc1Cl the results were PD-1 reversal -3.9 and MITF inhib -7.9.
`COc1ccc(S(=O)(=O)N(C)C[C@@H]2OCCCC[C@@H](C)Oc3ccc(NC(=O)Cc4ccccc4)cc3C(=O)N([C@H](C)CO)C[C@@H]2C)cc1` gave Hedgehog inh inconclusive, YB-1 expression -0.184 and MITF inhib 5.0.
`C[C@@H]1CN([C@@H](C)CO)C(=O)c2cccc(N(C)C)c2O[C@H]1CN(C)Cc1ccncc1` gave Hedgehog inh -5.0, YB-1 expression -0.454, PD-1 reversal 0.5 and MITF inhib -17.9.
`COc1ccc(S(=O)(=O)Nc2ccc3c(c2)C(=O)N([C@H](C)CO)C[C@@H](C)[C@@H](CN(C)Cc2ccc(C(F)(F)F)cc2)O3)cc1` gave YB-1 expression 0.148, PD-1 reversal -1.3 and MITF inhib 39.6.
CCN(CCCc1ccccc1)CCCc1ccccc1 was read as Hedgehog inh 3.4, YB-1 expression -0.0218, PD-1 reversal -0.5 and MITF inhib -1.9.
`CC(=O)C(C)Sc1ncnc2sc(-c3ccccc3)cc12` (configuration not stated) gave PD-1 reversal -1.6 and MITF inhib -31.2.
CC(C)NC(=O)N(C)C[C@H]1Oc2ccc(NC(=O)C3CC3)cc2C(=O)N([C@H](C)CO)C[C@@H]1C was read as Hedgehog inh 35.0, YB-1 expression 0.00595, PD-1 reversal 0.6 and MITF inhib 1.4.
Cc1noc(C)c1NC(=O)N(C)C[C@H]1Oc2c(NC(=O)Nc3ccc(F)cc3)cccc2C(=O)N([C@H](C)CO)C[C@H]1C was read as Hedgehog inh -27.5, YB-1 expression 0.29, PD-1 reversal 1.1 and MITF inhib 0.2.
Screening N#CC(C(=O)c1ccccc1Cl)=C1SCCCS1 returned Hedgehog inh 22.7, YB-1 expression -0.471, PD-1 reversal -0.7 and MITF inhib -1.3.
Screening O=C(Cn1c(=O)oc2ccccc21)Nc1sc2c(c1C(=O)O)CCCC2 returned PD-1 reversal 0.7 and MITF inhib -0.1.
`Cc1ccccc1NC(=O)CSc1nc(Nc2ccccc2)nc(N2CCOCC2)n1` gave PD-1 reversal -2.7 and MITF inhib -64.8.
Screening O=C(CSc1ncnc2sc3c(c12)CCC3)Nc1ccc(Cl)cc1 returned PD-1 reversal 1.1 and MITF inhib -31.3.
COc1ccc(NC(=O)CSc2nc3ccccc3[nH]2)cc1Cl was read as PD-1 reversal -1.4 and MITF inhib -30.8.
`Cc1noc(C)c1NC(=O)N(C)C[C@H]1Oc2c(NC(=O)NC3CCCCC3)cccc2C(=O)N([C@H](C)CO)C[C@@H]1C` gave Hedgehog inh 7.3, YB-1 expression 0.624 and MITF inhib -6.0.
CS(=O)(=O)N(CC(=O)O)Cc1ccc(Cl)cc1 was read as PD-1 reversal 2.3 and MITF inhib -9.9.
COc1ccc(CN(C)C[C@@H]2Oc3c(NC(=O)NC(C)C)cccc3C(=O)N([C@@H](C)CO)C[C@@H]2C)cc1 was read as Hedgehog inh -40.0, YB-1 expression 1.61, PD-1 reversal 1.0 and MITF inhib 13.9.
`CC(C)NC(=O)N(C)C[C@@H]1Oc2c(NC(=O)Nc3ccc4c(c3)OCO4)cccc2C(=O)N([C@H](C)CO)C[C@@H]1C` gave Hedgehog inh -8.1, YB-1 expression 0.102, PD-1 reversal 3.6 and MITF inhib -3.7.
`COc1ccc(NC(=O)N(C)C[C@@H]2Oc3ccc(N(C)C)cc3CC(=O)N([C@@H](C)CO)C[C@@H]2C)cc1` gave Hedgehog inh -3.1, YB-1 expression 0.132 and MITF inhib -10.3.
`Cc1cc(C(=O)Nc2cccc3c2O[C@H](CN(C)Cc2ccc(C(=O)Nc4ccccc4N)cc2)[C@H](C)CN([C@H](C)CO)C3=O)n(C)n1` gave YB-1 expression -0.296, PD-1 reversal -1.7 and MITF inhib 6.1.
For C[C@H]1CN([C@@H](C)CO)C(=O)Cc2cc(NC(=O)Nc3ccc4c(c3)OCO4)ccc2O[C@H]1CN(C)Cc1ccc(-c2ccccc2)cc1 the results were YB-1 expression -0.423, PD-1 reversal 1.3 and MITF inhib 19.8.
For C[C@H]1CN([C@@H](C)CO)C(=O)Cc2cc(NC(=O)C3CC3)ccc2O[C@@H]1CN(C)Cc1ccc2c(c1)OCO2 the results were Hedgehog inh 6.1, YB-1 expression 0.136, PD-1 reversal 0.0 and MITF inhib -18.6.
`C[C@H](CO)N1C[C@H](C)[C@@H](CN(C)CC2CCCCC2)Oc2c(NS(=O)(=O)c3cn(C)cn3)cccc2C1=O` gave Hedgehog inh -27.8, YB-1 expression 0.595, PD-1 reversal 0.6 and MITF inhib -1.5.
`COc1cc(OC)c(C(=O)NCCCN2CCOCC2)cc1OC` gave PD-1 reversal 3.0 and MITF inhib 26.7.
CCOC(=O)c1c(NC(=O)COc2cccc(Cl)c2)sc(C)c1C was read as PD-1 reversal -6.9 and MITF inhib 0.0.
For CCSc1nc2ccccc2n1Cc1nc(N)nc(N(C)C)n1 the results were PD-1 reversal -0.5 and MITF inhib -11.8.
`CNC[C@@H]1Oc2c(NS(=O)(=O)c3ccccc3)cccc2C(=O)N([C@@H](C)CO)C[C@@H]1C` gave Hedgehog inh -16.6, YB-1 expression 0.693, PD-1 reversal 4.4 and MITF inhib -3.4.
For C[C@H]1CN([C@@H](C)CO)C(=O)c2cccc(NC(=O)c3ccncc3)c2O[C@@H]1CN(C)CC1CCCCC1 the results were Hedgehog inh 23.6, YB-1 expression -0.626, PD-1 reversal -0.9 and MITF inhib -9.1.
For Cc1sc(NC(=O)COc2ccc(Cl)cc2Br)c(C(N)=O)c1C the results were PD-1 reversal 3.3 and MITF inhib -38.0.
Screening CC1=N/C(=C\c2sccc2C)C(=O)O1 returned Hedgehog inh -10.0, YB-1 expression -0.209, PD-1 reversal 0.3 and MITF inhib 17.6.
C[C@@H]1CN([C@H](C)CO)C(=O)c2cc(NC(=O)CCCCCC(=O)Nc3ccccc3N)ccc2O[C@@H]1CN(C)C(=O)Nc1ccc(F)cc1 was read as YB-1 expression -0.131, PD-1 reversal -0.2 and MITF inhib -3.0.
Cc1cc(N(CC(N)=O)S(C)(=O)=O)ccc1Br was read as PD-1 reversal 0.4 and MITF inhib 4.4.
Cc1cc(C)c(OCC(=O)Nc2cccc(NC(=O)c3ccccc3C)c2)c(Br)c1 was read as PD-1 reversal 1.6 and MITF inhib 37.0.
C[C@@H]1CN([C@H](C)CO)C(=O)Cc2cc(NS(=O)(=O)c3ccccc3)ccc2O[C@@H]1CN(C)C(=O)Nc1cccc2ccccc12 was read as Hedgehog inh -16.5, YB-1 expression 0.596, PD-1 reversal 1.2 and MITF inhib -13.8.
`C[C@@H]1CN([C@@H](C)CO)C(=O)c2cccc(N(C)C)c2O[C@H]1CN(C)C(=O)Nc1cccc2ccccc12` gave Hedgehog inh -0.9, YB-1 expression -0.137, PD-1 reversal 1.3 and MITF inhib -8.0.
Cc1ccc(-c2nc(SC(CC(=O)O)c3ccccc3)n[nH]2)cc1 (configuration not stated) was read as PD-1 reversal 2.6 and MITF inhib -8.2.
For CC(C)NC(=O)N(C)C[C@H]1Oc2ccc(NC(=O)C3CCCCC3)cc2CC(=O)N([C@@H](C)CO)C[C@@H]1C the results were Hedgehog inh -23.3, YB-1 expression -0.0324, PD-1 reversal -0.3 and MITF inhib -16.2.
For Cc1noc(C)c1S(=O)(=O)Nc1ccc2c(c1)C(=O)N([C@H](C)CO)C[C@H](C)[C@@H](CN(C)Cc1ccc(Cl)c(Cl)c1)OCCCC[C@@H](C)O2 the results were Hedgehog inh 16.8, YB-1 expression -0.143 and MITF inhib 17.2.
C[C@@H]1CN([C@@H](C)CO)C(=O)Cc2cc(NS(=O)(=O)c3cccs3)ccc2O[C@@H]1CN(C)Cc1ccc(C(=O)O)cc1 was read as Hedgehog inh -23.0, YB-1 expression 0.575, PD-1 reversal 2.6 and MITF inhib -3.3.
COc1ccc(CN(C)C[C@@H]2Oc3ccc(NC(=O)Nc4c(C)noc4C)cc3C(=O)N([C@@H](C)CO)C[C@H]2C)cc1 was read as Hedgehog inh 6.5, YB-1 expression -0.261 and MITF inhib -1.9.
For C[C@@H]1CN([C@@H](C)CO)C(=O)Cc2cc(NC(=O)Nc3ccccc3)ccc2O[C@@H]1CN(C)C the results were Hedgehog inh 10.1, YB-1 expression -0.003, PD-1 reversal 0.0 and MITF inhib -6.8.
`NC(N)=Nc1nc(-c2ccc(-c3ccccc3)cc2)cs1` gave Hedgehog inh -9.1, YB-1 expression 0.581, PD-1 reversal -13.5 and MITF inhib -76.0.
For CCn1c2ccccc2n2c(SCC(=O)Nc3ccc(Cl)cc3)nnc12 the results were PD-1 reversal 1.4 and MITF inhib -11.3.
COc1ccccc1NC(=O)Cn1c(=O)oc2ccccc21 was read as PD-1 reversal -0.1 and MITF inhib -5.6.

Source: PubChem BioAssay
